Screening data (PubChem BioAssay)
Rango dissoc inh: inhibition of RanGTP-driven Rango-importin beta dissociation; actives 0.071% (n = 340,000); Biochemical FRET Rango-importin beta, RanGTP-induced dissociation; O95149+P62826; Potency, µM (doses to about 46.1 µM), inactives show at the highest dose activity change, negative = inhibition; active means falling FRET ratio curve, often poorly fitted, with flat reads before Ran was added; inconclusive means other falling curves, or compound fluorescence or quenching; inactive means flat or rising ratio curve;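 further: potency means the concentration at half of the fitted maximal effect; % of control where 0% means no effect; nearly all actives have a fitted effect of over 45% in size; -100% = wells without RanGTP and RCC1; the record marks most hits as doubtful in a second field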
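Rango (0.1 uM)–importin beta (0.25 uM) complex; RanGTP-RCC1 trigger; 45 min RT; CFP/YFP FRET read.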
Rango-impB inh: prevents formation of the Rango-importin beta complex; Rango CFP/YFP FRET sensor + importin beta, 45 min; Potency, µM (doses to about 92.2 µM), inactives show at the highest dose inhibition of complex formation; actives 0.031% (n = 340,000); active = rising FRET ratio curve, often small or poorly fitted; inconclusive = mostly compound fluorescence or quenching in the first reads; inactive = flat curves in all reads;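 further: potency means the concentration at half of the fitted maximal effect; 0% = DMSO wells and 100% = buffer wells lacking importin beta; nearly all actives have a fitted effect of over 15% in size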
Target sequence (Q14974 whole entry, looked up): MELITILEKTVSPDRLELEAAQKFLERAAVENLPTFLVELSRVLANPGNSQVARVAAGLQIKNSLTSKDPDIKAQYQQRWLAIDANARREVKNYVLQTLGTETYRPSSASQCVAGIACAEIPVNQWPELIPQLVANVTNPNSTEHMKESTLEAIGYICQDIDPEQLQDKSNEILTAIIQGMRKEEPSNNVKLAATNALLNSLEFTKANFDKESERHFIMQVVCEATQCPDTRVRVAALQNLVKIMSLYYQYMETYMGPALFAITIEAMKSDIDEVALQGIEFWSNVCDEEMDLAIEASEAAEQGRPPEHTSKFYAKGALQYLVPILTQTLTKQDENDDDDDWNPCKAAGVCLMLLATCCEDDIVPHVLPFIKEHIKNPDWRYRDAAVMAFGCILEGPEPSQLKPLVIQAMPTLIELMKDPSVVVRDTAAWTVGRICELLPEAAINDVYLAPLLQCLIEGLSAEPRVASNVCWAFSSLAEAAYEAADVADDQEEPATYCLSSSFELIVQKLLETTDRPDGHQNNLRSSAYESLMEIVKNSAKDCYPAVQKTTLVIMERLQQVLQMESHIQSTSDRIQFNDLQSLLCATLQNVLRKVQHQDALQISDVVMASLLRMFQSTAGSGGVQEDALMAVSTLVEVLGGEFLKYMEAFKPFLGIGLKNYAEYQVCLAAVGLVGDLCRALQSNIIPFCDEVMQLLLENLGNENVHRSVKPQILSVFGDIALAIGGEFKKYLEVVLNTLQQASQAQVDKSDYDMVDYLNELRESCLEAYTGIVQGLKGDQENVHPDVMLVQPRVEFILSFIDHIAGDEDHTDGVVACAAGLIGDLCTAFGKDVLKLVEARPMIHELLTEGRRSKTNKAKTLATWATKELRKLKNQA
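Inhibition scored from the CFP 486 nm/YFP 530 nm FRET ratio 45 min after adding 0.125 microM importin beta to 50 nM Rango biosensor preincubated 5 min with compound (room temperature, PBS with DTT, Tween-20, BSA). No-importin wells as positive control.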
GLA inh pH 4.5: blocks human alpha-galactosidase A at pH 4.5; P06280; purified enzyme, 4-MU-alpha-Gal fluorescence, pH 4.5; activity change, negative = inhibition, % at 105 µM; 230,000 tested, under 10 active; AID 1467; inconclusive = small, poorly fitted or top-dose-only inhibition, or a rising curve; inactive = flat fitted curve, though single readings scatter; no compound was filed as active;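 further: 0% = full activity with enzyme and -100% = basal without enzyme; dose as in the result columns while the protocol names 77 µM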
miR-21 reporter: miR-21 reporter, rising signal; HeLa miR-21 FLuc reporter, luciferase, 48 h; Potency, µM (highest dose often 38.3 µM), for the others: top-dose reporter change, positive = more light; 340,000 tested, under 10 active; AID 2288; active = well fitted rising curve with a large enough effect; inconclusive = small, poorly fitted or top-dose-only effect; inactive = no such curve, though single readings can be large or run the other way;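 further: % of control where 0% means no effect; miR-21 action dims this reporter so a rising signal means less miR-21 action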
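Compounds were titrated across several concentrations (up to approximately 40 uM) and incubated 48 hours with HeLa miR-21-FLuc reporter cells (miR-21 target sequence downstream of FLuc, endogenous miR-21). Readout was firefly luciferase luminescence after lytic detection reagent.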
* marks the source's active call; other numbers are inactive results; ? = inconclusive; . = not tested or not shown; & = joins results of further samples; [ ] = remark or other dose. Only part of the results is shown; rates above refer to the full screens.

Sample of the layout:
SMILES | Rango dissoc inh | Rango-impB inh | GLA inh pH 4.5 | miR-21 reporter
CCN(C(=O)CSc1nc(C2CC2)n(-c2ccccc2)n1)C1CCS(=O)(=O)C1 (centres undefined) | 13% | -0.1% | . | .
COc1ccccc1CN1CCN(Cc2ccc3ccccc3c2)CC1 | -6% | 0.3% | . | -11%

The list itself, from the start:
SMILES | Rango dissoc inh | Rango-impB inh | GLA inh pH 4.5 | miR-21 reporter
CCN(C(=O)CSc1nc(C2CC2)n(-c2ccccc2)n1)C1CCS(=O)(=O)C1 (centres undefined) | 13% | -0.1% | . | .
COc1ccccc1CN1CCN(Cc2ccc3ccccc3c2)CC1 | -6% | 0.3% | . | -11%
Cn1c(=O)c2c(ncn2CC(=O)Nc2ccccc2)n(C)c1=O | -12% | -2.9% | -3 | -4%
N=c1c2ccccc2nc2n1CCCCCCCCCCC2 | 24% | -0.3% | . | .
O=C(Nc1cccc(NC(=O)c2ccc(F)cc2)c1)c1ccc(F)cc1 | 2% | -0.9% | . | 6%
CCC(=O)NC(c1ccccc1)c1c(O)ccc2ccccc12 (centres undefined) | 1% | 2.3% | . | -2%
O=C(CCc1ccccc1)NCC(=O)N/N=C/c1ccc(O)cc1O | -8% | -5.4% | -5 | 14%
O=C(CSc1nncc2ccccc12)Nc1cccc(O)c1 | 1% | 0.8% | . | -8%
CN(C)S(=O)(=O)c1cccc(NC(=O)CSc2nc3c(cc2C#N)C(=O)CC(C)(C)C3)c1 | -2% | -3.9% | -11 | ?
O=C(Nc1cccnc1Cl)c1ccc2c(Cl)c3c(nc2c1)CCC3 | 1% | ? | 1 | -24%

Record cards, as listed above. Values in the order: Rango dissoc inh | Rango-impB inh | GLA inh pH 4.5 | miR-21 reporter
`O=C(Nc1cccnc1Cl)c1ccc2c(Cl)c3c(nc2c1)CCC3` is listed with 1% | ? | 1 | -24%
`CN(C)S(=O)(=O)c1cccc(NC(=O)CSc2nc3c(cc2C#N)C(=O)CC(C)(C)C3)c1` is listed with -2% | -3.9% | -11 | ?

Following part
SMILES | Rango dissoc inh | Rango-impB inh | GLA inh pH 4.5 | miR-21 reporter
O=C(/C=C/c1nc2ccccc2s1)N1CCCCCC1 | 11% | 1.0% | -3 | -61%
CN(C(=O)OC(C)(C)C)[C@H](Cc1ccccc1)C(=O)N[C@H]1CCCCNC1=O | 12% | -3.0% | . | .
CCN(CC)CCCNC(=O)c1cn(CC)c2cc(N3CCN(C(=O)c4ccco4)CC3)c(F)cc2c1=O | 3% | 0.7% | . | -8%
Cc1nc(-c2ccc(S(=O)(=O)N3CCCN(CCc4ccccc4)CC3)s2)cs1 | -3% | 0.4% | 10 | 12%
CCOc1ccc(C2NC(=O)Cc3cc(OC)c(OC)cc32)cc1 (centres undefined) | -9% | 0.1% | . | -12%
CCCCC1=CC2=C(c3ccco3)C(=O)C(C)(OC(=O)c3ccc(OC)cc3)C(=O)C2=CN1CC1CC1 (centres undefined) | ? | ? | 9&-11 | 8%
O=C(Cn1nnc2ccccc21)c1ccc(Br)cc1 | -12% | ? | -2 | -49%
CCNc1ccc(Br)cc(C(=O)/C=C/c2ccc(Cl)cc2)c1=O | -15% | ? | -2 | 1%
CN(CC(=O)Nc1ccc(Cl)c(C(F)(F)F)c1)C(=O)CCC(=O)c1ccccc1 | -4% | ? | . | .
COc1ccc(OC)c(N2CC(O)(c3cccs3)[N+]3=C2SCCC3)c1 (centres undefined) | -15% | -0.1% | -3 | 2%
Cc1ccc(C(=O)Nc2nc3ccc(S(C)(=O)=O)cc3s2)s1 | 2% | -1.4% | 0 | -45%
C=CC[N+]1(CC=C)CCOCC1 | -6% | 0.2% | 0 | -1%
CCCCC(=O)Oc1ccccc1C1SCc2cc(C)c(C)cc2CS1 | 1% | -1.6% | 0 | -1%
CCn1nc(C)c(/C=N/NC(=O)Cn2nnc(N)n2)c1C | 15% | -1.0% | 0 | -4%
Cc1ccc(S(=O)(=O)c2c(COC(=O)c3ccc(Cl)cc3)c(-c3ccccc3)nn2C)cc1 | 1% | 0.9% | ? | -2%
COc1ccc(S(=O)(=O)N(C)CC(=O)NCC2CCCO2)cc1OC (centres undefined) | 5% | -1.0% | . | -2%
CCOc1cc(CNCc2cccnc2)cc(Br)c1OCC(N)=O | 2% | -0.3% | . | 3%
COc1ccccc1/C=C/C(=O)NC1CC2CCC1C2 (centres undefined) | -10% | 0.0% | . | -46%
CCCn1cc(S(=O)(=O)c2ccc(Cl)cc2)c(=O)c2cc(OC)ccc21 | -5% | 2.6% | . | -20%
N=C(N)SCc1ccccn1 | 2% | -2.3% | -2 | 5%
C=CCNCCOc1ccc(C(C)(C)c2ccccc2)cc1 | -1% | -0.2% | -6 | -10%
NC(=O)c1ccc(Nc2ccc3c(c2)CCC3)c([N+](=O)[O-])c1 | -18% | 3.9% | . | -1%
CC(=O)Nc1cccc(C(=O)/C=C/c2ccc(/C=C/C(=O)c3cccc(NC(C)=O)c3)cc2)c1 | . | . | 5 | 27%
COc1cc(CCC(=O)N2CCN(S(=O)(=O)c3ccc(C)c(C)c3)CC2)cc(OC)c1OC | -5% | -1.0% | -5 | 1%
CC1CCCCN1C(=O)c1ccccc1NC(=O)c1ccco1 (centres undefined) | 11% | 0.8% | -1 | -1%
Cc1ccc(CSCCNC(=O)CN(c2cccc([N+](=O)[O-])c2)S(C)(=O)=O)cc1 | -18% | 0.4% | -5 | 2%
Cc1nc2ccccc2c(=O)n1NC(=O)c1ccccc1Br | -16% | 0.1% | . | -3%
CCc1ccc(OCCOCC(O)CNC(C)(C)C)cc1 (centres undefined) | -4% | ? | -12 | -10%
CCOC(=O)C(=O)NNc1ccccc1OC | 6% | 4.7% | 1 | -10%
CN(CCc1ccccn1)C(=O)CCC1CCCN(C(=O)c2ccc3c(c2)OCCO3)C1 (centres undefined) | -5% | -2.6% | 5 | -4%
CCC(=O)C1CCCN(C(=O)CCc2nnc(-c3ccc4c(c3)OCO4)o2)C1 (centres undefined) | 13% | ? | . | -30%
Cc1ccc(NC(=O)c2ccco2)nc1 | 1% | -0.1% | . | .
O=S(=O)(NCCSCc1c(Cl)cccc1Cl)c1ccc2c(c1)OCCO2 | 22% | -1.9% | -14 | -11%
O=Cc1ccnc(-c2ccc(OC(=O)c3ccco3)cc2)n1 | 3% | -0.4% | 7 | 2%
O=C(COC(=O)CCCc1nc2ccccc2s1)NC(=O)NCc1ccco1 | -15% | -0.4% | -8 | 2%
Cc1ccc(NC(=S)NCc2ccc(Cl)cc2)c(OC(F)F)c1 | -12% | -1.1% | . | 7%
CC(=O)[C@@H]1[C@@H](C)N(Cc2ccccc2)C(=O)N[C@H]1c1cccc(C(F)(F)F)c1 | 1% | 3.8% | 2&-1 | 28%
CN(Cc1cccs1)C(=O)Cc1c[nH]c2ccccc12 | ? | -0.4% | 2 | -36%
Cc1cccc(NC(=S)N(CCN(C)C)Cc2cc3cc(C)ccc3[nH]c2=O)c1 | 12% | 0.7% | -3 | -4%
Cc1nc(NC2=NCN(Cc3ccccc3)CN2)nc2ccccc12 | . | . | -4 | 1%
C/C=C(\C)c1nnc(NC(=O)c2ccco2)s1 | 20% | 11% | -11 | -38%
Cc1ccc(S(=O)(=O)N2CCC[C@H]2C(=O)NC2CCCCC2)cc1 | 2% | -2.5% | . | .
N/C(=N\OC(=O)C12CC3CC(CC(C3)C1)C2)c1ccccc1 | -9% | 0.9% | -5 | -16%
CC1(C(=O)O)Oc2cccnc2NC1=O (centres undefined) | -3% | 2.3% | ? | 2%
CN1CCN(CC(O)COc2ccc(C(=O)O)cc2)CC1 (centres undefined) | -1% | 4.4% | . | -2%
COc1cc(C2=NOC(C(=O)NCc3cccs3)C2)cc(OC)c1OC (centres undefined) | 13% | -1.1% | 1 | 18%
CN(CC(=O)Nc1ccc2c(c1)CCC2)CC(=O)Nc1ccccc1Br | -1% | 3.3% | 1[21.1 µM] | 0%
CCCn1c(SCC(=O)c2cc(C)n(C3CC3)c2C)n[nH]c1=O | -8% | 0.2% | . | .
C/C(N)=C(/C#N)C(=O)COC(=O)[C@@H](NC(=O)c1ccccc1Cl)C(C)C | 9% | -1.6% | -18 | 0%
O=C(COc1coc(CN2CCN(c3ccccc3F)CC2)cc1=O)NC1CCCC1 | -8% | -0.6% | . | .

(listing goes on)
SMILES | Rango dissoc inh | Rango-impB inh | GLA inh pH 4.5 | miR-21 reporter
CS(=O)(=O)N1CCc2cc(C(=O)Nc3ccc(COCC(F)(F)F)cc3)ccc21 | -1% | 5.2% | . | 19%
CCOC(=O)N1CCN(S(=O)(=O)N2CCCC(C(=O)NCCc3ccc(Cl)cc3)C2)CC1 (centres undefined) | 5% | -2.2% | . | -8%
C#CCn1c(C)cc(C)c(S(=O)(=O)c2ccccc2)c1=O | -13% | 4.6% | 5 | -51%
N#CCC(=O)Nc1ccc(C(=O)OCC(=O)NCCCc2ccccc2)cc1 | 0% | 0.2% | . | -2%
Cc1cccc(C)c1NC(=O)C(c1ccc([N+](=O)[O-])cc1)N1CCCCC1 (centres undefined) | 1% | -4.6% | 5 | -1%
CC1=C(C(=O)OCC2CCCO2)C(c2ccc(O)cc2)NC(=O)N1 (centres undefined) | -14% | -2.9% | 4 | -5%
N#CC1=C(N)C(C#N)(C#N)[C@H](c2c(F)cccc2F)[C@H]2CC3(CC=C12)OCCO3 | 1% | 1.0% | ? | 18%
CC1=C(C(=O)Nc2cccnc2)C(c2ccc(C(C)C)cc2)n2ncnc2N1 (centres undefined) | -6% | 0.9% | 1 | 1%
CCN(C(=O)CSc1nc2ccc(C)cc2[nH]1)C1CCS(=O)(=O)C1 (centres undefined) | 8% | -1.1% | . | .
Cc1nc(N2CCN(c3ccccc3)CC2)nc2c1C(=O)CC(C)C2 (centres undefined) | 0% | -0.5% | 3 | -6%
O=C(CSc1ccc2nnc(-c3ccccn3)n2n1)Nc1ccccc1C(F)(F)F | 10% | -2.8% | . | -2%
O=C(O)CCC(=O)NN1C(=O)c2ccccc2NC1c1ccco1 (centres undefined) | 0% | -1.1% | 3 | 0%
C=CCOC(=O)C1=C(C)Nc2ncnn2C1c1cc(Br)ccc1F (centres undefined) | 9% | -0.8% | 5 | 0%
O=C(NC1CC1)C1=C[C@@H](c2csc3ccccc23)C[C@@H](OCCCCO)O1 | 2% | 3.1% | 2 | -5%
COc1ccc2c(c1)c(=O)oc1c(C)c(OC(C)C(=O)NCC3CCC(C(=O)O)CC3)ccc12 (centres undefined) | 1% | -0.6% | . | -12%
CCCCC(=O)Nc1ccc(C(=O)NCC(=O)OC)cc1 | 2% | 0.0% | -5 | -13%
CC(=O)Nc1oc(-c2cccc3ccccc23)nc1C#N | -10% | ? | . | .
Cc1cccc(CS(=O)(=O)Cc2ccc(C(=O)NCc3ccccc3)o2)c1 | -17% | 5.6% | . | 8%&1%
CC(C)c1cccc(C2=CC(=O)C[C@H](c3ccc(F)cc3)C2)c1 | 26% | ? | . | .
O=C(COC(=O)CCc1c[nH]c2ccccc12)Nc1ccccc1 | 0% | 1.5% | . | .
O=C1CN(Cc2ccccc2)CC(=O)N1 | 15% | 1.4% | . | .
COc1ccc(C2=NS(=O)(=O)N(C)C(C(=O)NCc3ccccn3)=C2)cc1 | 0% | -1.4% | . | 1%
COc1ccc2nc(NC(=S)N(C)C)sc2c1 | 0% | 2.5% | 7 | 10%
Cc1cc(S(=O)(=O)N2CCC(NC(=O)C34CC5CC(CC(C5)C3)C4)CC2)ccc1-n1cnnn1 | 3% | 0.6% | 1 | -3%
CC(=O)Nc1ccc(NC(=O)CN(c2ccccc2Cl)S(C)(=O)=O)cc1 | -3% | -2.0% | -1 | -3%
O=S(=O)(c1ccc(-c2cc(C(F)(F)F)on2)s1)N1CCCC1 | -5% | -0.4% | -9 | 1%
COCCNC(=O)CCc1nnc(Cc2ccc(-c3ccccc3)cc2)o1 | -21% | 1.9% | 7 | 2%
O=C(Nc1nc2ccc(Br)cc2s1)c1ccco1 | 3% | -0.1% | . | -28%

Sorted by molecular weight (descending): some entries from above.
SMILES | Rango dissoc inh | Rango-impB inh | GLA inh pH 4.5 | miR-21 reporter
CC(=O)Nc1ccc(NC(=O)CN(c2ccccc2Cl)S(C)(=O)=O)cc1 | -3% | -2.0% | -1 | -3%
COc1ccc(C2=NS(=O)(=O)N(C)C(C(=O)NCc3ccccn3)=C2)cc1 | 0% | -1.4% | . | 1%
O=S(=O)(c1ccc(-c2cc(C(F)(F)F)on2)s1)N1CCCC1 | -5% | -0.4% | -9 | 1%
